# CDC25B-CDK2 inh = primary biochemical HTRF screen for blockers of M-phase inducer phosphatase 2 binding to CDK2/cyclin A; P30305+P24941; 94,000 tested, 0.72% active; HTRF CDC25B-CDK2/CyclinA binding, anti-His/anti-Flag; stronger effect = higher value; AID 1259370, 2018; z-score (concentration not given with the values);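 also: score is relative to mean and SD of negative controls; strong numbers were not always called active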
# TAR Tat displ = TAR RNA-Tat peptide displacers, HIV-1, primary screen, biochemical, FRET, FAM/TAMRA-labeled Tat. HIV-1 TAR RNA, Tat peptide displacement FRET; stronger effect = higher value. z-score (concentration not given with the values). 100,000 tested, 0.6% active;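 also: score is relative to mean and SD of negative controls; some compounds called inactive have numbers as strong as hits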
# Active calls of the source: *; / = no result given; & = joins results of further samples.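 The calls were made as follows: active = z-score from 3 up in half or more of its runs; inactive = the rest.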
SMILES,CDC25B-CDK2 inh,TAR Tat displ
CCN(CC)CCNc1ncnc2c1cnn2-c1ccc(C)c(C)c1,/,1.2
CC(C)N1C(=O)C(O)(c2c[nH]c3ccccc23)c2ccccc21 (configuration not stated),-1,0
Cc1ccc2nc(C3=C(O)CN(CCN(C)C)C3=N)[nH]c2c1,-1.6,-0.17
Cc1nn(-c2ccccc2)c2c1C(c1ccc(O)c(O)c1)C1=C(CC(C)(C)CC1=O)N2 (configuration not stated),-1.9,-1.6
CCN1CCN(c2nc(C)nc3sc4c(c23)CCC4)CC1,-0.65,1
COc1ccc(OC)c(NC(=O)CSc2nc3ncccc3[nH]2)c1,/,0.68
CCN1CCN(c2ncc3c(n2)CCN(Cc2ccccc2C)C3)CC1,/,-2.8
Cc1cc2c(cc3c(SCc4nc(-c5ccc(Cl)cc5)oc4C)nncn32)o1,/,0.68
COc1ccc(Cl)cc1-n1c(=O)c(C#N)cc2c(=O)n3cc(C)ccc3nc21,-2,1.6
CCCC(C)c1nnc(NC(=O)C(=O)c2c[nH]c3ccccc23)s1 (configuration not stated),-2,1.1
COc1cc(Cl)ccc1Oc1ncnc2sc(C)cc12,/,1.2
COCC(=O)Nc1ccc2nc(SCc3cc(=O)n4oc(C)cc4n3)sc2c1,/,11
CCCC(=O)NC(NC(=S)Nc1ccc(Br)cc1)C(Cl)(Cl)Cl (configuration not stated),-2.8,/
COc1ccc(-n2cc(-c3ccccc3)c3c(NC4CC4)ncnc32)cc1,-2.7,-0.99
Clc1ccc2c(c1)CCc1cccnc1C2=C1CCNCC1,/,0.83
Cc1cc(S(=O)(=O)Nc2cccc(-c3ccc(S(C)(=O)=O)nn3)c2)c(C)cc1Cl,/,-0.56
CC1CCCC(NC(=O)c2ccc3c(SCC(=O)O)c4c(nc3c2)CCC4)C1C (configuration not stated),0.7,0.55
CC1=C2C(=CO[C@H](C)[C@H]2C)C(=O)C(C(=O)O)=C1O,/,-3.2
COc1ccc(N(C)S(=O)(=O)c2ccc3[nH]c(=O)ccc3c2)c(OC)c1,/,1.4
COC(=O)c1sccc1S(=O)(=O)N1CCN(c2ccccc2)CC1,/,0.88

# In the list so far, five have an aryl methoxy group:
SMILES,CDC25B-CDK2 inh,TAR Tat displ
COc1ccc(OC)c(NC(=O)CSc2nc3ncccc3[nH]2)c1,/,0.68
COc1ccc(Cl)cc1-n1c(=O)c(C#N)cc2c(=O)n3cc(C)ccc3nc21,-2,1.6
COc1cc(Cl)ccc1Oc1ncnc2sc(C)cc12,/,1.2
COc1ccc(-n2cc(-c3ccccc3)c3c(NC4CC4)ncnc32)cc1,-2.7,-0.99
COc1ccc(N(C)S(=O)(=O)c2ccc3[nH]c(=O)ccc3c2)c(OC)c1,/,1.4

# The listing continues.
SMILES,CDC25B-CDK2 inh,TAR Tat displ
CCCN(CCC)C(=O)NC1(C(F)(F)F)Oc2ccccc2O1,-0.13,/
CC1=C(C(=O)Nc2cc(Cl)ccc2C(=O)NC(C)c2ccccc2)SCCO1 (configuration not stated),/,0.38
O=C(CSc1nc2c([nH]c3ccccc32)c(=O)n1-c1ccccc1)Nc1ccc2c(c1)OCCO2,/,1.2
COc1cc(-c2n[nH]c(=S)n2-c2ccc(F)cc2)cc(OC)c1OC,0.13,/
CN(C(=O)CCS(=O)(=O)c1cc(Br)cc2c1N(C(=O)C1CC1)CC2)C1CCCCC1,-0.92,2.3
O=C(Nc1ccc(OC(F)(F)F)cc1)Nc1nnc(C2CC2)s1,-1.4,/
COC(=O)C(C#N)c1ccc(C(F)(F)F)cc1[N+](=O)[O-] (configuration not stated),-1.9,/
O=C1c2cccnc2C(=O)N1Cc1ccc(F)cc1S(=O)(=O)NC1CC1,/,2.4
CCc1nc(SCC(=O)Nc2nnc(C)s2)c2c(=O)n(C)c(=O)n(C)c2n1,/,0.91
COc1ccc2ccccc2c1C1CC(=O)N2CN(C3CCCCC3)CSC2=C1C#N (configuration not stated),6.1*,-1.6
N#C/C=C/c1ccc(Cl)cc1Cl,-0.8,/
Cc1nn(C(C)C(=O)Nc2ccccc2F)c(=O)c2nn(-c3ccccc3)c(C)c12 (configuration not stated),/,-0.15
O=C(NOC(=O)c1ccccc1)c1ccccc1,-0.77,/
CCCCN1C(=O)C2C(C(=O)Nc3ccc(C(C)C)cc3)C3C=CC2(O3)C1C(=O)NC1CCCCC1 (configuration not stated),-0.11,-0.95
CC(C)(C)SCCN=C1NS(=O)(=O)c2cc([N+](=O)[O-])ccc21,-1.1,/
CC(C)c1onc(C(=O)N2CCN(C(c3ccccc3)c3ccccc3)CC2)c1[N+](=O)[O-],1.8,0.65
Cc1ccc(-c2onc(C)c2C)cc1S(=O)(=O)N1CCOCC1,/,1.4
O=C(O)CCC(=O)c1ccc2ccccc2c1,-0.45,2.1
COc1cc(CNCc2cc(Br)ccc2OC)cc(OC)c1,-1.7,1.4
CN1C(=O)c2ccccc2Sc2ccc(NC(=O)N3CCN(c4cccc(Cl)c4)CC3)cc21,-1.2,0.89
COC(=O)c1cc(S(=O)(=O)Nc2c(Cl)cc(OC)cc2OC)c[nH]1,/,-0.8
O=C1c2cccnc2C(Nc2ccc(Br)cc2F)N1Cc1cccs1 (configuration not stated),-2,-0.92
Cc1c(C2CCN(S(=O)(=O)c3cn(C)cn3)CC2)c2ccccc2n1Cc1cccc(F)c1,/,1.4
Cc1cc(=O)n2[nH]c(N3C(=O)c4ccccc4C3=O)nc2n1,-0.1,/
O=C(N=Nc1c(O)n(CN2CCOCC2)c2ccc(Br)cc12)c1cccnc1,1.4,/
NC(=O)C1CCN(S(=O)(=O)c2ccc(N3CCCCS3(=O)=O)cc2)CC1,/,0.75
FC(F)(F)c1cccc(-c2ccc(-c3nn4c(-c5ccco5)nnc4s3)o2)c1,1.4,/
CN1C(=O)C(C)(C)c2cc(S(=O)(=O)N3CC=C(c4ccccc4)CC3)ccc21,/,4.1
CCOC(=O)C1CCN(S(=O)(=O)c2cccc3nonc23)CC1,-0.74,/
COc1ccc(S(=O)(=O)N2CCc3cc4ccc(OC)cc4nc32)c(C)c1,-1.2,-1.4
CCOC(=O)c1c(NC(=O)Nc2ccc(Cl)cc2)sc2c1CCN(C(=O)OCC)C2,-2.7,0.08
CSc1cccc(N2C(=O)N(Cc3ccccc3)c3ccccc3S2(=O)=O)c1,/,1.2
Cn1c(SCC(=O)Nc2ccc(N3CCOCC3)cc2)nnc1-c1cc2ccccc2o1,/,0.93
CCNc1nc(Oc2ccc(=O)n(-c3ccccc3)n2)nc(N(C)C)n1,-0.56,1.1
CCOc1ccc(-c2noc(CSc3nnc(-c4ccc(Cl)cc4)n3CC)n2)cc1,-0.85,-0.74
CCCC12CN3CC(C)(CN(C1)C3c1ccc(OCC)c(OC)c1)C2=O (configuration not stated),-2.2,2.2
O=C(C1CCN(S(=O)(=O)c2cccc3nonc23)CC1)N1CCc2ccccc2C1,/,0.34
CC(NC(=O)CCCn1sc2ccccc2c1=O)c1ccc2c(c1)OCCO2 (configuration not stated),-0.27,2
Cc1ccc(C2CC(=O)Nc3c2cnn3-c2nc3ccccc3s2)cc1C (configuration not stated),/,2.4
CCOC(=O)c1cnc(SCC(N)=O)nc1N,0.72,1.5
Cc1occc(=O)c1O,/,3
CCCCN(C)C(=O)Cn1c(CN(C)C(C)=O)nc2ccccc21,-0.23,0.73
Cc1cc(C)n2c(Br)c(CSc3nnnn3-c3ccccc3)nc2n1,-0.82,-1.7
CC(C)C[C@H](NC(=O)[C@H]1O[C@@H]1C(=O)O)C(=O)NCCCCN=C(N)N,/,2&1.1
Cc1ccc(S(=O)(=O)Nc2cc(-c3c(O)ccc4ccccc34)c(O)c3ccccc23)cc1,-0.64,/
O=C(CCc1nnc2ccc(N3CCCC3)nn12)Nc1ccc(F)cc1F,/,0.26
CCOC(=O)/C(C#N)=C/Nc1nc2ccc(C)cc2s1,-2.5,/
CCc1ccc(CNc2ncnc3onc(-c4ccc(Cl)cc4)c23)cc1,-0.27,-0.2
Cc1cccc(C)c1-n1nnnc1C1(N2CCOCC2)CCCC1,/,1
COc1ccc(/C=C/c2nn3c(C)nnc3s2)cc1,-0.33,-0.02
CC(C)c1ccc(N2C(=O)CCC2(C)C(=O)NC2CCCC2)cc1 (configuration not stated),-0.74,0.2
O=C(CCc1nc2cccnc2n1Cc1cccs1)Nc1ccc(Br)cc1,0.19,-4.1
CCn1c(C(=O)N2CCCC(C(=O)NC(C)c3ccc4c(c3)OCCO4)C2)cc2sccc21 (configuration not stated),0.3,/
Cc1cc(C(=O)C(=O)Nc2ccc(Br)cc2)c(C)n1-c1ccccc1,0.08,-4
O=C(CCC(=O)N1CCSc2ccccc21)NCCCN1CCOCC1,/,0.95
CC1CN(Cc2c(O)ccc3c(=O)c(-c4ccccc4)c(C(F)(F)F)oc23)CC(C)O1 (configuration not stated),0.01,0.4
CC(Cc1ccco1)NS(=O)(=O)c1csc(C(N)=O)c1 (configuration not stated),/,0.5
CC1CCc2oc3ccc(NS(=O)(=O)c4cccc5cccnc45)cc3c2C1 (configuration not stated),-0.2,1.7
COc1ccc(-c2noc(CSc3nnc(C)n3-c3ccc(F)cc3)n2)c(OC)c1,-0.36,0.7
Cc1cc(C)cc(N2C(=O)N(CC(=O)N3CCC(C)CC3)C3CS(=O)(=O)CC32)c1 (configuration not stated),-0.71,0.7

# Full records as entered above. Values in the order: CDC25B-CDK2 inh | TAR Tat displ
# Cc1occc(=O)c1O across the screens: / | 3
# CC(Cc1ccco1)NS(=O)(=O)c1csc(C(N)=O)c1 (configuration not stated) across the screens: / | 0.5
# O=C(CCc1nnc2ccc(N3CCCC3)nn12)Nc1ccc(F)cc1F across the screens: / | 0.26
# COc1ccc(-c2noc(CSc3nnc(C)n3-c3ccc(F)cc3)n2)c(OC)c1 across the screens: -0.36 | 0.7
# O=C(CCc1nc2cccnc2n1Cc1cccs1)Nc1ccc(Br)cc1 across the screens: 0.19 | -4.1

# (cont.)
SMILES,CDC25B-CDK2 inh,TAR Tat displ
COC(=O)c1cnc(OC)c([N+](=O)[O-])c1,-2.3,/
Cc1cccc(C(=O)Nc2c(C(=O)NC(C)(C)C)oc3ccccc23)c1,/,-1.2
O=C(C1CC(c2c(F)cccc2Cl)=NO1)N1CCCCC1 (configuration not stated),-2.5,-0.15
CCCN(CCC)c1ncnc2c1cnn2-c1ccccc1,/,0.28
COc1ccc(-c2nc3c4cnn(-c5ccccc5Cl)c4ncn3n2)cc1,0,0.02
COc1ccc2c(c1)CCc1c-2n[nH]c1C(=O)N1CCCN(c2cc(=O)n(C)c(=O)n2C)CC1,/,0.66
COC(=O)C(CC(C)C)NC(=O)CSc1nnc(C)c(=O)[nH]1 (configuration not stated),-1.5,0.61
CCC(=O)N1N=C(c2cccs2)CC1c1ccc(C)cc1 (configuration not stated),-1.2,/
O=S(=O)(Nc1cccc(Cl)c1)c1ccc2nc(-c3ccccc3)[nH]c2c1,-0.37,/
O=C(CSc1nc2ccsc2c(=O)n1Cc1ccccn1)Nc1nccs1,-2.7,/
CCOCCCNc1nc2c(-c3ccccc3)nnn2c2ccccc12,-1.6,0.42
COC(=O)c1ccc(C2c3c(oc4ccccc4c3=O)C(=O)N2c2nc(C)c(C(=O)OC)s2)cc1 (configuration not stated),-0.33,-0.22
O=C(c1ccc(Br)cc1)c1ccc([N+](=O)[O-])cc1,-1.8,/
CC1CC(C)CN(S(=O)(=O)c2cccc(-c3cn4cc(Cl)ccc4n3)c2)C1 (configuration not stated),0.34,-0.65
Cc1c(C(=O)NC2CCCCC2C)oc2ccc(S(=O)(=O)N3CCCC3)cc12 (configuration not stated),-1.2,/
CC(CS(=O)(=O)c1ccc2c(c1)NC(=O)CS2)C(=O)Nc1ccc(Br)cc1F (configuration not stated),/,-1.5
O=S(=O)(Cc1ccc2nonc2c1)c1ccc(C(F)(F)F)cn1,0.22,/
C=CCn1c2ccc(C)cc2c2nc3ccccc3nc21,-0.76,0.87
Cc1nc2scc(C)n2c(=O)c1S(=O)(=O)NCc1ccccc1Cl,-1.5,0.98
COc1ccc(-c2cnn3c(C(F)(F)F)cc(C)nc23)cc1OC,1.6,0.15

# Four structures from above, ordered by formula weight, ascending:
SMILES,CDC25B-CDK2 inh,TAR Tat displ
COC(=O)c1cnc(OC)c([N+](=O)[O-])c1,-2.3,/
CCCN(CCC)c1ncnc2c1cnn2-c1ccccc1,/,0.28
O=C(C1CC(c2c(F)cccc2Cl)=NO1)N1CCCCC1 (configuration not stated),-2.5,-0.15
COC(=O)C(CC(C)C)NC(=O)CSc1nnc(C)c(=O)[nH]1 (configuration not stated),-1.5,0.61

# Next part:
SMILES,CDC25B-CDK2 inh,TAR Tat displ
Clc1cccc(CSc2nc3ncccc3[nH]2)c1,-0.47,0.8
Cc1ccc(OCc2nc(C#N)c(N3CC(C)OC(C)C3)o2)cc1 (configuration not stated),0.46,0.25
O=C1OC2CC3CCC2C1C3 (configuration not stated),1.7,/
COc1ccc(C2Sc3nncn3N2Cc2ccc(C#N)cc2)cc1 (configuration not stated),-0.28,/
Clc1ccccc1-c1nc(N2CCCC2)c2ccccc2n1,-0.11,0.66
C=CCNC(=O)C(NS(=O)(=O)c1cccs1)C(C)C (configuration not stated),/,1.2
CC1Cc2cc(S(=O)(=O)N3CCN(c4ccccc4F)CC3)ccc2N1C(=O)C1CCC1 (configuration not stated),/,-0.42
Cc1ccc(-c2n[nH]c3c2C(c2ccc(O)cc2)NC3=O)cc1 (configuration not stated),/,-0.47
